HNF4A DNA FP = change in binding of human HNF4 alpha to DNA. P41235. HNF4a-FITC DNA binding, fluorescence polarization, 1 h. activity change, % at 10 µM. 0.3% of 360,000 active. AID 1224865; in the data active means activity change above about 30%, passing the limit was not always enough;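 further: controls were the assay level and a saturating level of protein; the project sought stronger binding though the title names inhibitors; some compounds called inactive have numbers as strong as hits; positive values seem to mean higher polarization but the record does not say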
Target sequence (P41235 whole entry, looked up): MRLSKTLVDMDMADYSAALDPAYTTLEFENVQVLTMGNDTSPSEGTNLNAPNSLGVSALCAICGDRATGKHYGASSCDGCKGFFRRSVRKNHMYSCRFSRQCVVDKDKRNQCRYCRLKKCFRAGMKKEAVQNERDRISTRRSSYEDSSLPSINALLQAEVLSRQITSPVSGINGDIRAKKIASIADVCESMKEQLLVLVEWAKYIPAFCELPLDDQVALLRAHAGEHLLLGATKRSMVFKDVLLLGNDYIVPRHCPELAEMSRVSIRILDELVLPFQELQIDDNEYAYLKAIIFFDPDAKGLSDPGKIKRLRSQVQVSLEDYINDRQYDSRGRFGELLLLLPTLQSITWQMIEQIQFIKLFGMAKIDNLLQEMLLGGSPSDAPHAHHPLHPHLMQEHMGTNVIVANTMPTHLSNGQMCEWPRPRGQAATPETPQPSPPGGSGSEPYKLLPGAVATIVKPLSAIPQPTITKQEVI
AF4-AF9 inh = inhibitors of human MLL-AF4/AF9 interaction | AlphaScreen, biotin-AF4 peptide binding to FLAG-AF9 | inhibition, % at 10 µM | AID 651704 | 0.47% of 350,000 active | P42568;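 active means every replicate reaching a set inhibition limit, whatever the replicate mean, cut at about 25% in these data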;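 further: 0% = plate neutral control median and 100% = total signal loss; the record names both 10 and 1 µM as test concentration; the first replicate is given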
FGF22 binding = shifts melting point of recombinant human FGF22; Q9HCT0; recombinant FGF22 thermal shift, SYPRO orange fluorescence; percent of sucrose octasulfate shift, DMSO zero; calls only at 9.99 µM; 1.5% of 340,000 active; AID 651658;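 active means melting point raised past a set limit in the mean and every replicate; three in four hits are not shown here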
Target sequence (Q9HCT0 whole entry, looked up): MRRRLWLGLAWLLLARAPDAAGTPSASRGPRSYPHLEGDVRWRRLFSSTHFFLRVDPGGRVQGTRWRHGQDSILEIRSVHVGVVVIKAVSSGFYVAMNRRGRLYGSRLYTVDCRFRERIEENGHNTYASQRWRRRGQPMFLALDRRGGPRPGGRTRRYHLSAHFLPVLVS
Ecoli growth = E. coli growth inhibition | OD600 absorbance (test concentration not listed) | Escherichia coli growth, OD600, 23 h; stronger effect = lower value | 0.21% of 330,000 active;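 active means OD600 absorbance below the run mean of sample wells minus 3.6 SD, in any replicate, cut at about 0.56 in these data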;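 further: stock transfer was 300 nL into about 60 µL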
Vif A3G = HIV-1 Vif–A3G interaction blockers – biochemical, TR-FRET, GST-Vif 1-94, biotin-A3G peptide, dose response retest, primary screen (AID 1117319). TR-FRET GST-Vif / biotin-A3G peptide binding; higher % means a stronger effect; test concentration not given here; strong numbers were not always called active. inhibition, %, or IC50 in µM where a hit was titrated. 0.57% of 260,000 active;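 active means above the screen mean plus three standard deviations and confirmed in dose response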;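 further: Vif residues 1-94 fused to GST binding biotinylated APOBEC3G peptide 110-148; 0% = full assay without inhibitor and 100% = GST in place of GST-Vif; retest series ran down from 100 µM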
ALR H2O2 inh = blocks human ALR sulfhydryl oxidase activity; P55789; purified ALR, DTT oxidation, H2O2 HRP-luminol luminescence; inhibition, % (no concentration beside the values); 3.8% of 290,000 active; AID 485317;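 active means mean and each replicate at 75% or more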;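 further: stock transfer was 7.5 nL into about 7.5 µL; 0% = neutral wells and 100% = wells with inactivated enzyme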
Target sequence (P55789 whole entry, looked up): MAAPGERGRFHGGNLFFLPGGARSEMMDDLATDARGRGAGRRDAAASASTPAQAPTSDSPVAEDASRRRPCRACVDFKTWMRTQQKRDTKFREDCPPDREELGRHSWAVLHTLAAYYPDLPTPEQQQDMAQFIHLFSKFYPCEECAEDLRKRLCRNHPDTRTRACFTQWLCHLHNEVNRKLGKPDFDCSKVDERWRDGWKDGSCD
Ecoli rRNA inh = inhibitors of bacterial rRNA selective over humanized ribosomes. E. coli WT GFP vs humanized-ribosome RFP mutants, fluorescence, 24 h; stronger effect = lower value; DMSO median 0, no signal -100. GFP signal change (wild-type ribosome), % (concentration not given with the values). 1.6% of 350,000 active;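 active means significant combined selectivity score with lowered wild-type GFP, culture density cut under 30%, mutant RFP and density less affected; inactive means any of these conditions unmet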; further: one replicate is shown; some compounds called inactive have numbers as strong as hits
Ecoli rRNA inh OD600 = further read-out of Ecoli rRNA inh, marked with its call; OD600 change, %; measured here: OD600 growth;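 optical density of the mix in the first replicate; 0 = DMSO median and -100 = no signal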
Ecoli rRNA inh RFP = recorded beside Ecoli rRNA inh, whose call it bears; RFP signal change, %; measured here: RFP humanized mutant strains;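 first replicate; 0 = DMSO median and -100 = no signal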
* marks the source's active call; other numbers are inactive results; i = inactive; x = not tested or not shown. These rows are one share of the data, so the mix of outcomes need not match the whole.

SMILES | HNF4A DNA FP | AF4-AF9 inh | FGF22 binding | Ecoli growth | Vif A3G | ALR H2O2 inh | Ecoli rRNA inh | Ecoli rRNA inh OD600 | Ecoli rRNA inh RFP
CSc1ccc(CN2CCC(C)(Oc3ccc(C(C)=O)cc3)C2)cc1 (centres undefined) | 2.8 | 1.0 | i | x | x | x | -1 | -2 | 3.6
CN(C)C(=O)c1ccc(NC(=O)COc2ccc([N+](=O)[O-])cc2)cc1 | 2.2 | -2.0 | i | 0.65 | -3% | -2 | 12 | 10 | 1.5
O=C(COC(=O)/C=C/c1ccc(F)cc1)Nc1cc(C(F)(F)F)ccc1N1CCOCC1 | 3.1 | 1.8 | i | 0.75 | x | -17 | 20 | 15 | -0.3
Cc1c(NC(=O)c2cccc(NC(=O)COc3ccc(C#N)cc3)c2)c(=O)n(-c2ccccc2)n1C | -0.2 | 1.8 | i | 0.66 | 5% | x | 3 | 7 | 0.4
COc1ccccc1-c1ccc2n(c1=O)C[C@@H]1[C@@H](CO)[C@H](C(=O)N3CCOCC3)[C@H]2N1CC1CC1 | x | -0.7 | i | x | x | x | 1 | 0 | -0.6
COc1ccc(NC2CCCN(C(=O)CSc3ccccn3)C2)cc1OC (centres undefined) | -0.9 | -1.5 | i | 0.67 | x | 99* | 1 | -12 | 1.0
Cn1nc(C(F)(F)F)c2cc(C(=O)Nc3ccc(C(F)(F)F)cc3)sc21 | -1.5 | -2.8 | i | 0.7 | -1% | -14 | -39* | -13* | -12*
CCc1nc2n(n1)C(O)c1cc([N+](=O)[O-])ccc1S2 (centres undefined) | -1.0 | x | i | 0.63 | 18% | 8 | 19 | 6 | 1.8
Cc1noc(C)c1NC(=O)N[C@H]1C=C[C@@H](CC(=O)N2CCCCC2)O[C@H]1CO | x | -0.9 | i | x | x | x | 3 | 5 | -1.5
C[C@@H]1CN([C@H](C)CO)C(=O)c2cc(NC(=O)NC3CCCCC3)ccc2O[C@@H](C)CCCCO[C@H]1CN(C)C(=O)Nc1ccc(F)cc1 | x | -0.4 | i | x | x | x | -1 | 3 | 0.2
COc1ccc(NC(=O)Nc2ccc3c(c2)C(=O)N([C@H](C)CO)C[C@H](C)[C@@H](CN(C)C)O3)cc1 | x | 0.2 | i | x | x | x | 3 | 2 | -1.8
COc1cccc(CSc2nc3cc4c(cc3cc2C)OCCO4)c1 | 4.7 | 0.2 | i | 0.73 | -1% | -15 | x | x | x
CC[C@H]1C(c2ccc(F)cc2)=NN(c2ccccc2)[C@@H]1CO | 3.8 | -42 | i | 0.68 | 5% | x | -40 | -75 | -12
COCC(=O)N1CC(=O)N2[C@@H](CO)[C@@H](c3ccc(Br)cc3)[C@@H]2C1 | x | -3.5 | i | x | x | x | 4 | 2 | 3.5
COc1ccc(C(c2sc3nc(C)nn3c2O)N2CCCCC2)cc1 (centres undefined) | -0.3 | -11 | i | 0.77 | 23% | 11 | 2 | 2 | -2.5
CC(C)NC(=O)Nc1ccc2c(c1)C(=O)N(C)[C@H]1CC[C@H](CC(=O)Nc3ccccc3)O[C@@H]1CO2 | x | 0.4 | i | x | x | x | -3 | -7 | -5.8
Cc1noc(C)c1S(=O)(=O)N(C)C[C@H]1Oc2ccc(NS(=O)(=O)c3ccc(F)cc3)cc2CC(=O)N([C@H](C)CO)C[C@@H]1C | x | 1.4 | i | x | x | x | -3 | -5 | -2.3
CCOc1ccc(-n2c(N)c(C(=O)NCC3CCCO3)sc2=S)cc1 (centres undefined) | 0.5 | x | x | 0.71 | -3% | 4 | x | x | x
CC(C)N(C(=O)CO/N=C/c1cccc([N+](=O)[O-])c1)C(C)C | -2.2 | 2.9 | i | x | 67% | -3 | 8 | 2 | 0.5
Cc1ccc(S(=O)(=O)N(C)C[C@H]2Oc3c(NC(=O)Nc4ccc(F)cc4)cccc3C(=O)N([C@@H](C)CO)C[C@@H]2C)cc1 | x | 2.0 | i | x | x | x | 4 | -2 | 3.0
O=S(=O)(c1ccc(Br)cc1)N1CCn2c(nc3ccccc32)C1 | -3.9 | -2.1 | i | 0.69 | 1% | x | 1 | 11 | -4.1
COC(=O)COc1cc(=O)oc2ccc(NS(=O)(=O)c3ccccc3)cc12 | 0.2 | -4.5 | i | 0.67 | -9% | 6 | 6 | 3 | 3.1
COc1ccc(CCNc2nc(-c3cccnc3)nc3ccccc23)cc1OC | -1.1 | 0.2 | i | 0.7 | x | x | -1 | 0 | -0.4
NC(=O)CNC(=O)[C@@H]1CC2(CC(c3ccc(Cl)cc3)=NO2)CN1C(=O)c1ccccc1 (some centres undefined) | 1.3 | 3.3 | i | x | -2% | -9 | 9 | 6 | 0.3
C[C@@H]1CN([C@@H](C)CO)C(=O)Cc2cc(NC(=O)Cc3cn(C)c4ccccc34)ccc2O[C@H]1CN(C)S(=O)(=O)c1cccs1 | x | 1.0 | i | x | x | x | -4 | -4 | -1.1
COc1cccc(NC(=O)N[C@@H]2C=C[C@H](CC(=O)NCc3ccncn3)O[C@H]2CO)c1 | x | -4.5 | i | x | x | x | 3 | 18 | 0.1
O=C(CCC(=O)N1CCN(c2ccccn2)CC1)c1ccc(Cl)s1 | 9.9 | 0.7 | i | 0.7 | -3% | -4 | -1 | -6 | 4.5
Cc1cc(OCC(=O)N2CCC(O)(c3ccc(Cl)cc3)CC2)c2c(C)cc(=O)oc2c1 | 1.1 | -0.2 | i | 0.68 | x | -1 | -6 | -1 | -9.1
CC(=O)Nc1ccc(S(=O)(=O)NCc2ccc(C(=O)N3CCOCC3)cc2)cc1 | -0.2 | 0.7 | i | 0.64 | -16% | -1 | 6 | 4 | -0.4
Cc1ccc(-c2nc(CS(=O)CC(=O)NC3CC3)c(C)o2)cc1 (centres undefined) | 2.8 | 1.5 | i | 0.72 | -2% | 99* | 9 | 19 | 3.5
CCCCC/C=C\C/C=C\C/C=C\CCCCC(=O)O | -14 | -4.0 | i | x | x | 69 | x | x | x
C[C@H]1CN([C@@H](C)CO)C(=O)c2cccc(NS(=O)(=O)c3ccc(F)cc3)c2O[C@H]1CN(C)C(=O)Nc1cccc2ccccc12 | x | 3.0 | i | x | x | x | 1 | -12 | 1.2
Clc1cccc(Cc2c(C3CCCCC3)nc3c4ccccc4ccn23)c1 | 4.9 | 0.6 | i | x | x | x | 17 | 13 | 12
O=C1C=Cc2ccccc2/C1=C/c1[nH]c(=O)[nH]c1O | 4.6 | 1.6 | i | x | -11% | -20 | 2 | -7 | -0.1
COC(C(=O)Nc1ccc(C(C)=O)cc1)c1ccccc1 (centres undefined) | 0.3 | 1.3 | i | 0.69 | x | -5 | -2 | 2 | -2.6
Cc1ccc(O)c(CNc2ccc(S(=O)(=O)Nc3nccs3)cc2)c1 | 1.8 | 3.6 | i | 0.69 | -2% | x | -14 | -8 | 5.8
C[C@@H]1CN([C@H](C)CO)C(=O)c2cc(NC(=O)Nc3cccc4ccccc34)ccc2O[C@H]1CN(C)C(=O)Nc1ccc2c(c1)OCO2 | x | -0.3 | i | x | x | x | -1 | 3 | -0.1
CCC(=O)N1CCC(C)(C(=O)Nc2ccc3c(c2)OCCO3)C1 (centres undefined) | 6.5 | -2.3 | i | x | x | x | x | x | x
COCCCNC(=O)c1ccc(NC(C)=O)cc1 | 0.5 | -2.5 | i | 0.65 | -7% | 1 | 12 | 12 | 0.3
Cc1nnc(SCCCn2c(N3CCCCC3)nc3c2c(=O)[nH]c(=O)n3C)s1 | -2.5 | x | x | 0.72 | 9% | -14 | x | x | x
Clc1ccc2c(NCc3ccco3)ncnc2c1 | -2.3 | x | x | 0.77 | -4% | -4 | x | x | x
COc1ccc(CN(C)C[C@@H]2Oc3ccc(NC(=O)C4CC4)cc3CC(=O)N([C@@H](C)CO)C[C@H]2C)cc1 | x | -9.7 | i | x | x | x | 1 | 0 | 1.4
Cc1noc(C)c1NC(=O)NCC[C@@H]1CC[C@@H](NC(=O)c2ccc(F)cc2)[C@@H](CO)O1 | x | -1.0 | i | x | x | x | -1 | -3 | -0.2
CCN(C(=O)COC(=O)CCc1ccc(OC)cc1)c1c(N)n(Cc2ccccc2)c(=O)[nH]c1=O | -0.9 | 0.6 | i | 0.67 | 0% | x | 5 | 4 | 0.2
Cc1cccc(OCC(=O)N2CCC3(CC2)CC(=O)c2ccccc2O3)c1 | 3.2 | -3.1 | i | 0.66 | x | -3 | -1 | -9 | -1.8

Full records as entered above. Screens in order: HNF4A DNA FP, AF4-AF9 inh, FGF22 binding, Ecoli growth, Vif A3G, ALR H2O2 inh, Ecoli rRNA inh, Ecoli rRNA inh OD600, Ecoli rRNA inh RFP
Profile of CCC(=O)N1CCC(C)(C(=O)Nc2ccc3c(c2)OCCO3)C1 (centres undefined) : 6.5, -2.3, i, x, x, x, x, x, x
Profile of COC(C(=O)Nc1ccc(C(C)=O)cc1)c1ccccc1 (centres undefined) : 0.3, 1.3, i, 0.69, x, -5, -2, 2, -2.6
Profile of Cc1ccc(O)c(CNc2ccc(S(=O)(=O)Nc3nccs3)cc2)c1 : 1.8, 3.6, i, 0.69, -2%, x, -14, -8, 5.8
Profile of Cc1noc(C)c1NC(=O)NCC[C@@H]1CC[C@@H](NC(=O)c2ccc(F)cc2)[C@@H](CO)O1 : x, -1.0, i, x, x, x, -1, -3, -0.2

Continuation.
SMILES | HNF4A DNA FP | AF4-AF9 inh | FGF22 binding | Ecoli growth | Vif A3G | ALR H2O2 inh | Ecoli rRNA inh | Ecoli rRNA inh OD600 | Ecoli rRNA inh RFP
CC(=O)c1cccc(NC(=O)C2CCCN(S(C)(=O)=O)C2)c1 (centres undefined) | 2.8 | 2.1 | i | 0.72 | 5% | -8 | -27* | -15* | 4.4*
Cc1cccc(NS(=O)(=O)c2cc(Cl)ccc2Cl)n1 | -1.1 | 0.5 | i | 0.69 | x | 1 | 5 | 6 | -1.7
Cn1c(=O)[nH]c(=O)c2c1nc(SCC(O)CO)n2Cc1ccccc1Cl (centres undefined) | 0.2 | -43 | i | 0.71 | 3% | 15 | 10 | 4 | -2.6
Cc1ccccc1NC(=O)NC1CCCCC1C (centres undefined) | -0.9 | -0.3 | i | 0.7 | x | -4 | 14 | 8 | -0.7
CCCNC(=O)N1CC2(CN(Cc3nccs3)C2)c2c([nH]c3cc(OC)ccc23)[C@@H]1CO | x | 1.3 | i | x | x | x | 1 | -7 | -3.3
COc1ccc(C(=O)c2sc3nc(-c4ccccc4)ccc3c2N)cc1 | 28 | x | x | 0.7 | -6% | -2 | x | x | x
Cc1ccc(S(=O)(=O)N(C)C[C@H]2Oc3ccc(NC(=O)CCCCCC(=O)Nc4ccccc4N)cc3CC(=O)N([C@H](C)CO)C[C@@H]2C)cc1 | x | 1.1 | i | x | x | x | -2 | 5 | -1.0
Cc1noc(C)c1NC(=O)Nc1ccc2c(c1)C(=O)N([C@@H](C)CO)C[C@@H](C)[C@@H](CN(C)Cc1ccccc1)O2 | x | -1.2 | i | x | x | x | 4 | 6 | -2.0
CCOC(=O)C1CCCN(C(=O)c2cc(F)ccc2C)CC1 (centres undefined) | -2.5 | -0.9 | i | x | x | x | 1 | -3 | 0.1
CSC(=NCc1ccc(F)cc1)NS(=O)(=O)c1cccs1 | -3.0 | -13 | i | 0.74 | x | -12 | 5 | 0 | 2.9
C[C@@H]1CN([C@@H](C)CO)C(=O)c2cccc(NS(C)(=O)=O)c2O[C@H]1CN(C)C(=O)Nc1ccc2c(c1)OCO2 | x | -1.7 | i | x | x | x | -2 | 8 | 1.5
CC1=C(N2CCN(c3ncccn3)CC2)CCC1=O | -0.4 | -2.8 | i | 0.69 | x | 16 | 13 | 7 | -8.1
